High-throughput results as filed in PubChem BioAssay.
TsaE inh – qHTS Assay for Inhibitors of YjeE; 71,000 compounds, 0.05% hits; purified YjeE, fluorescence polarisation of a bound ADP probe; Potency, µM; tRNA threonylcarbamoyladenosine biosynthesis protein TsaE (Escherichia coli (strain …; AID 605, 2007; active = well fitted falling curve; inconclusive = weaker or top-dose-only fall, or a rising curve; inactive = flat or poorly fitted curve;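 also: top concentration of the series not given in the record; excess ADP was the control for the full effect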
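Fluorescence polarization of a BODIPY Texas Red–ADP probe (2 uM) bound to purified YjeE (10 uM) was read after 15 min room-temperature incubation with compounds. Loss of polarization marks inhibitors; ADP serves as titrated control.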
Bst PK mod – Pyruvate Kinase; partly purified Bacillus stearothermophilus pyruvate kinase, luminescence ATP production; ribose 5-phosphate activator present at AC10; Potency, µM; 51,000 compounds, 1.2% hits; in the data active means potency below about 11 µM; inconclusive means mostly about 12 µM to 25 µM; inactive means weaker than that;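 the screen sought inhibitors and activators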;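 also: potency is read from the fitted curve at half-maximal effect; scaled between full activation by ribose 5 phosphate and full inhibition by luteolin; about four in five hits inhibit and the cells do not say which; series up to 57 µM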
Active calls of the source: *; i = inactive; ? = inconclusive; nt = no result given.

Every second line gives: TsaE inh, Bst PK mod
> Cc1ccc(CN2CCN(C)CC2)c(C)c1
→ i, nt
> CC(C)(C)OOC(=O)c1ccccc1
→ i, nt
> N#C/C=C/C#N
→ i, nt
> CN1[C@@H]2CC[C@H]1CC(O[C@@H](c1ccccc1)c1ccc(Cl)cc1)C2 (stereo partly drawn)
→ ?, nt
> NCCCP(=O)(O)CCc1ccccc1
→ i, >57
> O=C1NC(=O)C2(Cc3ccccc3N3CCCC32)C(=O)N1Cc1ccccc1 (stereo not drawn)
→ i, >57
> COc1ccc(OC)c(-n2c(O)c(C=NCc3ccc4c(c3)OCO4)c(=O)[nH]c2=O)c1
→ i, >57
> C=CCn1c(O)c(C(CC)=NCc2cc(OC)cc(OC)c2)c(=O)[nH]c1=O
→ i, >57
> O=C(Oc1ccccc1)N1CCC2(CC1)CN(C(c1ccccc1)c1ccccc1)C2
→ i, nt
> COc1ccc(-n2c(C)nc3cc(C(=O)N4CCC5(CC4)OCCO5)ccc32)cc1
→ i, >57
> O=[N+]([O-])c1cc(C(F)(F)F)cc([N+](=O)[O-])c1Cl
→ i, nt
> CN1CCN(c2c[nH]c(=O)[nH]c2=O)CC1
→ i, >57
> NC(=NCCC[C@H](N)C(=O)O)N[N+](=O)[O-]
→ i, nt
> CCCC(=O)OCC[N+](C)(C)C
→ nt, >25.6
> CCNC[C@H](O)c1cccc(O)c1
→ i, nt
> CCOC(=O)CCN=Cc1c(O)n(-c2ccc(Br)cc2)c(=O)[nH]c1=O
→ i, ?
> c1cc(N2CCCC3(CCNCC3)C2)ccn1
→ i, nt
> CCCn1c(C)c(C(=O)c2ccc3ccccc3c2)c2ccccc21
→ i, nt
> CC(C)(O)[C@H]1O[C@@H]2CC[C@]3(C)[C@@]4(C)c5[nH]c6ccccc6c5C[C@@H]4CC[C@]3(O)C2=CC1=O
→ i, nt
> CC(=O)c1c(C)[nH]c(C(=O)N2CCC3(CC2)OCCO3)c1C
→ i, >57
> Cc1cccc(-c2nc3ccccc3c(=O)n2-n2cccc2)c1
→ i, nt
> COC1=C(C)C(=O)c2c(c(COC(N)=O)c3n2C[C@@H]2[C@@H]3N2C)C1=O (stereo partly drawn)
→ i, nt
> N#Cc1ccc(CN2CCC3(CC2)CCN(C(=O)Oc2ccccc2)CC3)cc1
→ i, nt
> CCOC(=O)c1cc2c(cn1)[nH]c1ccccc12
→ nt, ?
> CCOCN(C(=O)CCl)c1c(C)cccc1CC
→ i, nt
> O=[N+]([O-])c1cc([N+](=O)[O-])c2ccccc2c1
→ i, nt
> Cc1nc2cc(F)ccc2n1C1CCN(Cc2nnnn2CCc2ccccc2)CC1
→ i, >57
> CCOC(=O)c1c(C)c(P(=S)(N2CCOCC2)N2CCOCC2)n(C)c1C
→ i, >57
> Cn1c(=O)c2[nH]cnc2n(C)c1=O.[CH2-][C@H](Cc1cccc2cc(C(=O)O)c(=O)oc12)OC.[Hg].[OH-]
→ i, nt
> C[N+]1(C)CCO[C@@](O)(c2ccc(-c3ccc([C@]4(O)C[N+](C)(C)CCO4)cc3)cc2)C1
→ i, nt
> CCOC(C(=O)OCC(O)CN(CC)CC)(c1ccccc1)c1ccccc1 (stereo not drawn)
→ nt, >25.6
> CCN1CCN(C(=O)Cc2coc3cc(C)cc(C)c23)CC1
→ i, >57
> CN(C)CCOC(=O)c1cn(Cc2ccccc2)c2ccccc12
→ nt, >25.6
> Cn1c(=O)cc(SCC(=O)N2CCC3(CC2)OCCO3)c2ccccc21
→ i, >57
> Cc1ccc(-n2c(O)c(C=NCc3cccnc3)c(=O)[nH]c2=O)cc1C
→ i, >57
> N#Cc1ccc(CN2CC3(CCNCC3)C2)cc1
→ i, nt
> S=C(NC1CCCCC1)N1CCC(c2cnc[nH]2)CC1
→ i, nt
> CCN(CC)c1ncnc2c1ncn2[C@@H]1O[C@@H](COP(=O)(O)OP(=O)(O)C(Br)(Br)P(=O)(O)O)[C@H](O)[C@H]1O
→ i, nt
> c1ccc(N2CCC3(CCNCC3)CC2)nc1
→ i, nt
> Cc1cc(Cl)ccc1OCC(=O)O
→ i, >57
> COC(=O)C1=C(N)OC(C)=C(C(C)=O)C12C(=O)N(C)c1ccccc12 (stereo not drawn)
→ i, >57
> O=C(O)C(Cl)Br (stereo not drawn)
→ i, nt
> CCn1cc(C(=O)O)c(=O)c2ccc(C)nc21
→ i, >25.6
> COC(=O)c1cc2c(cn1)[nH]c1ccccc12
→ i, nt
> C[C@H](N)[C@H](O)c1ccc(O)c(O)c1
→ i, nt
> O=C1NCN(c2ccccc2)C12CCN(C[C@H]1COc3ccccc3O1)CC2
→ i, nt
> O=c1[nH]oc2c1CCNC2
→ i, nt
> Cn1cc(CCC(=O)N2CCC3(CC2)OCCO3)c2ccccc21
→ i, >57
> Oc1c(Cl)cc(Cl)cc1Cl
→ i, nt
> CCC(=O)Nc1cc(C(=O)N2CCC3(CC2)OCCO3)ccc1S(=O)(=O)c1ccc(C)cc1
→ i, >57

The list continues:
Every second line gives: TsaE inh, Bst PK mod
> CCOC(=O)c1ccc(NC(=O)c2c(O)[nH]c(=O)[nH]c2=O)cc1
→ i, >57
> Fc1ccccc1N1CCN(Cc2c(F)cccc2F)CC1
→ i, nt
> CCOc1ccc(-n2c(O)c(C=Nc3ccc(N(CC)CC)cc3)c(=O)[nH]c2=O)cc1
→ nt, >25.6
> C=CCN1CCc2cccc3c2[C@@H]1Cc1ccc(O)c(O)c1-3
→ i, nt
> C[C@]12CCC(=O)C=C1CC[C@@H]1[C@@H]2CC[C@@]2(C)[C@H]1CC[C@]2(C)O
→ i, nt
> C[N+](C)(C)Cc1ccccc1
→ i, nt
> Cc1ccc(N)cc1C
→ i, nt
> Oc1cc2c(cc1O)[C@H]1c3ccccc3CN[C@@H]1CC2
→ i, nt
> CCCn1c(C)c(C(=O)c2cccc3ccccc23)c2ccccc21
→ i, nt
> CCOC(=O)C1(c2ccccc2)CCN(Cc2cccc(C(=O)O)c2)CC1
→ i, >57
> CCCCCCn1c(O)c(C(C)=NC)c(=O)[nH]c1=O
→ nt, >25.6
> c1ccc(C(OCCN2CCNCC2)c2ccccc2)cc1
→ i, >57
> C[C@H](N[C@@H](C)CCc1ccccc1)[C@H](O)c1ccc(O)cc1
→ i, nt
> Nc1ccc(C2(c3ccc(N)cc3)CN3CCC2CC3)cc1
→ nt, >25.6
> C[C@@H](Cc1ccc(O)cc1)NC[C@@H](O)c1cc(O)cc(O)c1
→ i, nt
> C[C@@H]1NCCc2cc(O)c(O)cc21
→ i, nt
> CC(C)CC(=O)C[C@H](O)C(Cl)(Cl)Cl
→ i, nt
> CC(C)(C)NC[C@H](O)c1ccccc1Cl
→ i, nt
> COC(C)(C)CCCC(C)C/C=C/C(C)=C/C(=O)OC(C)C (stereo not drawn)
→ i, nt
> COc1cc2cc(c1Cl)N(C)C(=O)C[C@H](OC(=O)C(C)C)[C@]1(C)O[C@@H]1[C@@H](C)[C@H]1C[C@](O)(NC(=O)O1)[C@@H](OC)/C=C\C=C(\C)C2
→ i, nt
> C=CCN1C[C@@H](C)N([C@H](c2ccc(C(=O)N(CC)CC)cc2)c2cccc(OC)c2)C[C@H]1C
→ i, nt
> C[C@H](N)Cc1cnc[nH]1
→ i, nt
> CNC(=O)O/N=C/C(C)(C)S(C)=O (stereo not drawn)
→ i, nt
> CCCN(CCC)C1Cc2cc(OC)c(OC)cc2C1
→ i, nt
> CC(=O)N[C@@H]1CCSC1=O
→ i, nt
> C1CCC2CCCCC2C1 (stereo not drawn)
→ i, nt
> O=P(O)(O)CCP(=O)(O)O
→ i, nt
> COC(=O)c1c(C)n(Cc2ccc3c(c2)OCO3)c2ccc(O)cc12
→ i, >57
> COC(=O)C(O)(c1ccc(N(C)S(=O)(=O)c2ccccc2)cc1)C(F)(F)F (stereo not drawn)
→ i, nt
> CC(C)(C)c1o[nH]c(=O)c1C[C@H](N)C(=O)O
→ i, nt
> O=C1NC(=O)[C@]2(Cc3ccccc3N3CCN(c4ccccc4)CC32)C(=O)N1c1ccccc1 (stereo partly drawn)
→ i, >57
> Cc1nc(-c2ccc(-c3ccc(C(=O)N4CCc5cc6c(cc54)C4(CCN(C)CC4)CO6)cc3)c(C)c2)no1
→ i, nt
> CCCCn1c(=O)c(C(=O)Nc2nc3ccccc3[nH]2)c(O)c2ccccc21
→ i, >57
> O=C(C1CC(=O)N(c2ccc(F)c(Cl)c2)C1)N1CCC2(CC1)OCCO2 (stereo not drawn)
→ i, >57
> c1cnc(N2CCC3(CCNCC3)CC2)nc1
→ i, nt
> CN(C)CCCc1cccnc1
→ i, nt
> CCC(=NCC1CCCO1)c1c(O)n(Cc2ccccc2)c(=O)[nH]c1=O (stereo not drawn)
→ i, >57
> CCN1CCN(C(=O)COc2cc(=O)n(CC)c3ccccc23)CC1
→ i, >57
> O=P(c1ccccc1)(c1ccccc1)N1CC2(CC2)CC(O)(c2ccccc2)C1 (stereo not drawn)
→ i, nt
> C=C(CC1(CNP(=O)(c2ccccc2)c2ccccc2)CC1)c1ccccc1
→ i, nt
> CC1=CC(=C2C(=O)NC(=O)NC2=O)C=C(C(F)(F)F)N1C(C)C
→ i, nt
> COC(=O)N(c1ccccc1)P1(=S)OCCO1
→ i, >57
> CC1=C2[C@@H]3OC(=O)[C@H](C)[C@H]3CC[C@@]2(C)C=CC1=O
→ i, nt
> C[C@@H]1O[C@@H](O[C@H]2C[C@@H](O)[C@]3(CO)[C@@H]4[C@@H](O)C[C@]5(C)[C@H]([C@@H]6COC(=O)C6)CC[C@@]5(O)[C@H]4CC[C@@]3(O)C2)[C@H](O)[C@H](O)[C@@H]1O
→ i, nt
> CCCCCCn1c(O)c(C=Nc2c(C)n(C)n(-c3ccccc3)c2=O)c(=O)[nH]c1=O
→ nt, >25.6
> CC[C@H](CO)NC(=O)[C@@H]1C=C2c3cccc4[nH]cc(c34)C[C@@H]2N(C)C1
→ i, nt
> CC(C)CC12CN3CCN(CC(C3)/C1=N/O)C2
→ i, nt
> c1ccc(NNc2ccccc2)cc1
→ i, nt
> C=CCn1c(O)c(C(CC)=Nc2cc(OC)ccc2OC)c(=O)[nH]c1=O
→ i, >57
> COc1ccc(CCNC(=O)c2c(N)n(CCN3CCOCC3)c3nc4ccccc4nc23)cc1
→ i, >57

The list goes on.
Every second line gives: TsaE inh, Bst PK mod
> CC(c1ccccc1F)n1cc(C(=O)Nc2ccc3nc[nH]c3c2)nn1 (stereo not drawn)
→ i, ?
> C[C@@]1(CO)[C@H](O)CC[C@@]2(C)[C@H]1CC[C@H]1C[C@@H]3C[C@@]12CC[C@]3(O)CO
→ nt, >25.6
> c1ccc2sc(C3(N4CCCCC4)CCCCC3)cc2c1
→ i, nt
> CN[C@H]1[C@H]2[C@H]3CCN2C[C@@H]1O3
→ i, nt

Entries of single compounds as entered above. Order of values: TsaE inh | Bst PK mod
c1ccc2sc(C3(N4CCCCC4)CCCCC3)cc2c1 reads i | nt
CC(c1ccccc1F)n1cc(C(=O)Nc2ccc3nc[nH]c3c2)nn1 (stereo not drawn) reads i | ?
CN[C@H]1[C@H]2[C@H]3CCN2C[C@@H]1O3 reads i | nt
C[C@@]1(CO)[C@H](O)CC[C@@]2(C)[C@H]1CC[C@H]1C[C@@H]3C[C@@]12CC[C@]3(O)CO reads nt | >25.6

Among those listed so far, these contain a halogen.
Every second line gives: TsaE inh, Bst PK mod
> CN1[C@@H]2CC[C@H]1CC(O[C@@H](c1ccccc1)c1ccc(Cl)cc1)C2 (stereo partly drawn)
→ ?, nt
> O=[N+]([O-])c1cc(C(F)(F)F)cc([N+](=O)[O-])c1Cl
→ i, nt
> CCOC(=O)CCN=Cc1c(O)n(-c2ccc(Br)cc2)c(=O)[nH]c1=O
→ i, ?
> CCOCN(C(=O)CCl)c1c(C)cccc1CC
→ i, nt
> Cc1nc2cc(F)ccc2n1C1CCN(Cc2nnnn2CCc2ccccc2)CC1
→ i, >57
> CCN(CC)c1ncnc2c1ncn2[C@@H]1O[C@@H](COP(=O)(O)OP(=O)(O)C(Br)(Br)P(=O)(O)O)[C@H](O)[C@H]1O
→ i, nt
> Cc1cc(Cl)ccc1OCC(=O)O
→ i, >57
> O=C(O)C(Cl)Br (stereo not drawn)
→ i, nt
> Oc1c(Cl)cc(Cl)cc1Cl
→ i, nt
> Fc1ccccc1N1CCN(Cc2c(F)cccc2F)CC1
→ i, nt
> CC(C)CC(=O)C[C@H](O)C(Cl)(Cl)Cl
→ i, nt
> CC(C)(C)NC[C@H](O)c1ccccc1Cl
→ i, nt
> COc1cc2cc(c1Cl)N(C)C(=O)C[C@H](OC(=O)C(C)C)[C@]1(C)O[C@@H]1[C@@H](C)[C@H]1C[C@](O)(NC(=O)O1)[C@@H](OC)/C=C\C=C(\C)C2
→ i, nt
> COC(=O)C(O)(c1ccc(N(C)S(=O)(=O)c2ccccc2)cc1)C(F)(F)F (stereo not drawn)
→ i, nt
> O=C(C1CC(=O)N(c2ccc(F)c(Cl)c2)C1)N1CCC2(CC1)OCCO2 (stereo not drawn)
→ i, >57
> CC1=CC(=C2C(=O)NC(=O)NC2=O)C=C(C(F)(F)F)N1C(C)C
→ i, nt
> CC(c1ccccc1F)n1cc(C(=O)Nc2ccc3nc[nH]c3c2)nn1 (stereo not drawn)
→ i, ?

This is a subset, so the mix of outcomes need not match the whole.
